HTT promoter inh = HTT promoter inhibition. HEK293 HTT promoter firefly luciferase reporter (activity 0% = vehicle and -100% = no light), 24 h. Potency, µM (titrated, usually from 57.5 µM), for inactives: at the highest dose activity change, negative = inhibition, hits mostly inhibitors. 48,000 compounds, 0.93% hits. AID 1508623; active = well fitted inhibition curve with a large enough effect; inconclusive = small, poorly fitted or top-dose-only effect; inactive = no such curve, though single readings can be large or run the other way; also: nearly all actives have a fitted effect of over 50% in size
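HEK293 cells carrying firefly luciferase reporters were seeded at 2,500 per well in Opti-MEM and cultured for 24 h. They were then treated with compounds at up to 57.5 uM final for 24 h at 37 degrees C before Dual-Glo luminescence readout.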
PMP22 txn prim = modulators of PMP22 gene transcription in S16 Schwann cells; Potency, µM (series often up to 57.5 µM), for inactives: at the highest dose activity change, negative = inhibition, usual class: inhibitors; 43,000 compounds, 2% hits; S16 Pmp22-F2sN Schwann cells (luciferase reporters placed in the Pmp22 gene), FLuc/NLuc coincidence luminescence, 24 h; AID 1508649; active = clear falling dose curves in both reporters; inconclusive = both reporters move, but less clearly or upward; inactive = either reporter flat; the % is the NLuc reporter signal; also: % is scaled to controls: 0 for no effect and ±100 for the full control effect; some results filed as inactive show a strong effect at the top dose
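Luminescent read-out of sequential FLuc and NLuc signals from a reporter embedded in the Pmp22 3' UTR of S16 Schwann cells, taken after 24 h compound exposure at 37C; compounds reducing both signals score as inhibitors of expression.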
* marks the source's active call; other numbers are inactive results; u = inconclusive; x = not tested or not shown; [ ] = dose if it differs, or a comment. Potency is read from the fitted curve at half-maximal effect.

Values run as follows: HTT promoter inh	PMP22 txn prim
Cc1ccc(C2=NC(c3ccc(F)cc3)=Nc3ccc(C)cc3N2)cc1
    3%	-15%
CCOc1ccc(/C=C(\C#N)C(=O)Nc2sc3c(c2C(=O)OC)C(C(=O)OC)CC3)cc1OC (configuration not stated)
    -17%	-40%
COc1ccc(CC(=O)Nc2c(C(=O)Nc3ccc(F)cc3)oc3ccccc23)cc1OC
    22%	-19%
CC(=O)C1=C(c2ccc(Cl)c(Cl)c2)N(C(C)=O)n2c(C)nnc2S1
    u	u
CCc1nn2c(=O)cc(COC(=O)CNC(=O)c3ccccc3)nc2s1
    -14%	2%
CNS(=O)(=O)c1cn(CC(=O)N2CCN(c3cccc(C)c3C)CC2)cc1S(=O)(=O)NC
    -7%	-40%
CCCOc1ccc(CNC(=O)CN2C(=O)c3cccnc3Oc3ccc(C)cc32)cc1
    11%	-2%
O=C(NCCCN1CCN(c2ccc(F)cc2)CC1)c1cc2c(Cl)nc3ccccc3c2s1
    4%	14µM*
N#C/C(=C\c1ccc(Br)cc1)c1nc(-c2cc3cc(Br)ccc3oc2=O)cs1
    -5%	-6%
CC(C)Oc1ccc(CN2CCc3nc(Nc4ccc5c(c4)OCCO5)ncc3C2)cc1
    u	-16%

Individual results from the list.
PMP22 txn prim, O=C(NCCCN1CCN(c2ccc(F)cc2)CC1)c1cc2c(Cl)nc3ccccc3c2s1 = 14µM*
PMP22 txn prim, CC(C)Oc1ccc(CN2CCc3nc(Nc4ccc5c(c4)OCCO5)ncc3C2)cc1 = -16%
HTT promoter inh, CCOc1ccc(/C=C(\C#N)C(=O)Nc2sc3c(c2C(=O)OC)C(C(=O)OC)CC3)cc1OC (configuration not stated) = -17%
HTT promoter inh, CCCOc1ccc(CNC(=O)CN2C(=O)c3cccnc3Oc3ccc(C)cc32)cc1 = 11%
HTT promoter inh, COc1ccc(CC(=O)Nc2c(C(=O)Nc3ccc(F)cc3)oc3ccccc23)cc1OC = 22%

Later entries.
Values run as follows: HTT promoter inh	PMP22 txn prim
CCCS(=O)(=O)N1CCC(n2c(C)nc3cccnc32)CC1
    51%[activator][11.5 µM]	-11%
COc1ccc(N2CCN(C(=O)CSc3nc(-c4ccccc4)no3)CC2)cc1
    21%	-23%
CCC(CC)C(=O)Nc1ccc(OCc2cc(=O)n3c4c(sc3n2)CCCC4)cc1
    -14%	-5%
CCCNc1ncnc2onc(C)c12
    -24%	0%
CCCCOc1ccc(C(=O)Nc2ccc3c(c2)CCCN3C(=O)c2cccs2)cc1
    u	u
COc1cc(C(=O)Nc2ccc(OCc3cc(=O)n4cccc(C)c4n3)cc2)cc(OC)c1OC
    1%	u
COc1ccc(NC(=O)CC2C(=O)N(c3ccc(F)cc3)C(=O)N2Cc2ccc3c(c2)OCO3)cc1 (configuration not stated)
    -21%	18%
Cc1ccc(Cl)cc1-n1ncc2c(N3CCN(Cc4ccccc4)CC3)ncnc21
    13µM*	u
Cc1cc(C)nc(-n2nc(C)c3c2NC(=O)CC3c2cccc(O)c2)n1 (configuration not stated)
    -4%	-8%
Cc1ccc(C(=O)Nc2nnc(S(=O)(=O)N3CCN(c4ccc(F)cc4)CC3)s2)cc1
    22%	u

The list goes on.
Values run as follows: HTT promoter inh	PMP22 txn prim
Cc1nn2c(=O)cc(COC(=O)c3cccc(NC(=O)c4cccs4)c3)nc2s1
    u	u
Cc1ccc(-n2nc(C)c(C(=O)NCCCN3CCN(c4ccc(F)cc4)CC3)c2-n2cccc2)cc1
    u	u
CCOc1ccc(CNC(=O)c2[nH]c3ccccc3c2Sc2ccc(C)cc2)cc1
    -4%	13%
CC1CCCN(Cc2cn3c(-c4cccc(Br)c4)nnc3s2)C1 (configuration not stated)
    2%	u
CC(=O)c1ccc(N2CCN(S(=O)(=O)c3ccc(-c4coc(C)n4)cc3)CC2)cc1
    u	-32%
CCOc1ccccc1CNC(=O)c1cc2c(=O)n(Cc3cccnc3)ccc2nc1C
    -17%	13%
O=C(NCCc1ccc(Cl)cc1)c1ccc(CS(=O)(=O)Cc2ccc(F)cc2)o1
    -1%	-42%
O=C(NCCc1ccccc1)c1ccc(CSc2nc3ccncc3n2Cc2ccccc2)cc1
    10%	-14%
COc1ccc(Nc2ncc3c(n2)CCN(Cc2cc(Br)cs2)C3)c(OC)c1
    -17%	-19%
Cc1ccc(NS(=O)(=O)c2ccc3c(c2)CCN3C(=O)C2CC2)c(C)c1
    u	u

More results
Values run as follows: HTT promoter inh	PMP22 txn prim
CCOC(=O)c1nnc2c(-c3ccc(Cl)cc3)c(C)nn2c1N
    -8%	0%
Cc1ccc(/C=C/c2onc(C)c2S(=O)(=O)N2CCC(C(=O)Nc3ccc(OC(F)(F)F)cc3)CC2)cc1
    -20%	11%
CCC(C(=O)OC)n1cnc2c(cnn2-c2ccc(F)cc2)c1=O (configuration not stated)
    -10%	u
N#C/C(=C\c1ccc(Cl)cc1)c1nc2ccccc2[nH]1
    18%	0%
Cc1cc(C)cc(Nc2cc(C(=O)NCc3ccccc3)c3ccccc3n2)c1
    -8%	u
Cc1c(C)n(Cc2ccc(F)cc2)c2ccc(C(=O)N3CCN(c4ccc(F)cc4)CC3)cc12
    -22%	-34%
CCOc1ccccc1CNCc1c(C(=O)O)n(Cc2ccc(F)cc2)c2cc(C)ccc12
    -8%	u
COc1ccc(NC(=O)CSc2nc(-c3ccccc3)cc(-c3cc(OC)c(OC)c(OC)c3)c2C#N)c(OC)c1
    -6%	6%
CN1CCN(CCNC(=O)c2cnn(-c3ccc(F)cc3)c2C2CCN(C(=O)OC(C)(C)C)CC2)CC1
    -4%	-35%
CCn1c(=O)cc(SCC(=O)N2CCN(c3cc(C)ccc3C)CC2)c2ccccc21
    u	u

Additional records follow.
Values run as follows: HTT promoter inh	PMP22 txn prim
CCN(CC)c1ccc(C(=O)N2CCc3c([nH]c4ccccc34)C2c2ccc(F)cc2)cc1 (configuration not stated)
    -12%	-3%
Fc1ccc(-c2nnc(CN3CCN(c4ccccn4)CC3)o2)cc1
    -12%	u
Cc1ccc(OCC(=O)N(Cc2ccco2)C2CCS(=O)(=O)C2)cc1 (configuration not stated)
    -2%	u
CCOC(=O)C1CCCN(C(=O)c2cc3c(Cl)nc4ccccc4c3s2)C1 (configuration not stated)
    5µM*	u
Cc1ccc(C2C=C(c3ccc(Cl)cc3)Nc3nc(NC(=O)CCC(=O)O)nn32)cc1 (configuration not stated)
    -2%	-2%
CCOc1ccc(C(=O)N(Cc2nc(-c3cccc(C)c3)no2)C(C)C)cc1
    -10%	u
CCOc1ccc(C(=O)N2CCN(CCc3ccccn3)CC2)cc1
    -12%[11.5 µM]	2%
Cc1cccn2c(=O)c(/C=C(\C#N)c3nc4ccccc4n3C)c(Oc3ccc(Cl)cc3)nc12
    -5%	3%
CCOC(=O)c1sc(NC(=O)c2nc3nc(C)cc(C(F)F)n3n2)c(C(=O)OC)c1C
    -1%	-1%
O=C(NCc1ccc2c(c1)OCO2)c1ccc2c(c1)N(Cc1ccc(F)cc1)C(=O)c1ccccc1S2=O (configuration not stated)
    -20%	u

Further records follow:
Values run as follows: HTT promoter inh	PMP22 txn prim
COc1cc2c(=O)c(C(=O)c3ccc(F)cc3)cn(Cc3cccc(F)c3)c2cc1OC
    -7%	u
Cc1ccc2oc(C(=O)Nc3c(C(=O)c4ccc(C)c(F)c4)oc4ccccc34)cc(=O)c2c1
    u	-7%
CCOCCCNC(=O)c1c(NC(=O)c2nc(SC)ncc2Cl)sc2c1CCCC2
    -8%	u
CCOc1ccc(CNC(=O)Cn2c(=O)c3cccn3c3cccnc32)cc1
    -10%	6%
CCc1ccc(NC(=O)CN2C(=O)C(c3ccccc3)=NC23CCCCCC3)cc1
    u	u
Cc1cc2nc(-c3ccc(NC(=O)c4ccc(OCC(C)C)cc4)cc3)oc2cc1C
    2%	-12%
CC(C)(C)OC(=O)N1CCC(c2c(C(=O)NCCc3ccsc3)cnn2-c2ccccc2Cl)CC1
    -8%	-28%
Cc1ccc(N2CCN(S(=O)(=O)c3ccc(Cl)c4ccccc34)CC2)c(C)c1
    3%	1%
Cc1ccc(S(=O)(=O)N2CCN(Cc3noc(CCC(=O)N4CCCCC4)n3)CC2)c(C)c1
    -23%	u
Cc1cccc(OCCn2nnc3sc4c(c3c2=O)CCCC4)c1
    9%	-28%

Next structures follow.
Values run as follows: HTT promoter inh	PMP22 txn prim
NC(=O)c1ncn([C@@H]2O[C@H](CO)[C@@H](O)[C@H]2O)c1N
    1%	x
CC(=O)c1ccc(S(=O)(=O)N2CCn3cccc3C2c2ccccc2F)cc1 (configuration not stated)
    -12%	-11%
Cc1cc(Nc2cc(Cl)ccc2C)n2nc(-c3ccccc3)nc2n1
    u	-4%
O=C(NCc1ccc(F)cc1)C1CCCN(c2ncnc3onc(-c4ccc(F)cc4)c23)C1 (configuration not stated)
    -22%	-24%
Cc1ccccc1NC(=O)c1cccc2c(=O)c3c([nH]c12)CCCC3
    -23%	-15%
CCOC(=O)CC(NC(=O)Cn1nnc(-c2ccccc2F)n1)c1ccccc1Cl (configuration not stated)
    -15%	-29%
COc1cc(CNC(=O)c2cc(-c3ccccc3)n[nH]2)cc(OC)c1OC
    -13%	1%
COc1ccc(-c2cc3nc(C)c(CCC(=O)N4CCN(c5cccc(Cl)c5)CC4)c(C)n3n2)c(OC)c1
    u	u
CN1C(=O)CC(c2ccccc2)C1=O (configuration not stated)
    -7%	x
Cc1cccc(NC(=O)Cn2c(=O)n(CC3CCC(C(=O)NCCc4ccccc4)CC3)c(=O)c3ccccc32)c1 (configuration not stated)
    -7%	u

Reformatted tab-delimited: entries from further up
Molecule	HTT promoter inh	PMP22 txn prim
Cc1ccccc1NC(=O)c1cccc2c(=O)c3c([nH]c12)CCCC3	-23%	-15%
CCOC(=O)CC(NC(=O)Cn1nnc(-c2ccccc2F)n1)c1ccccc1Cl (configuration not stated)	-15%	-29%

(next part)
Values run as follows: HTT promoter inh	PMP22 txn prim
Cc1ccc(C(=O)Nc2nnc(S(=O)(=O)N3CCCCCC3)s2)cc1
    40%[activator]	18%
COc1ccc(-c2nc3c(c(SCC(=O)Nc4ccc(C(=O)O)cc4)n2)Cc2ccccc2O3)cc1
    4%	-5%
Cc1ccc(CN2C(=O)c3ccccc3S(=O)(=O)c3ccc(C(=O)OCC4CCCO4)cc32)cc1 (configuration not stated)
    0%	-9%
CCOC(=O)c1cc(C)n(CC2CCC(C(=O)Nc3ccc(Cl)cc3)CC2)c1C (configuration not stated)
    4µM*	u
C[C@](N)(Cc1ccc(O)cc1)C(=O)O
    -8%[6.01 µM]	x
Cc1nnc(NC(=O)CSc2nccn2Cc2ccc(F)cc2)s1
    -12%	u
Cc1ccc(C(=O)N2CCCCC2CCN2CCCCC2)cc1 (configuration not stated)
    0%	-2%
COC(=O)c1ccc(NC(=O)c2c(NCc3cccc(F)c3)sc3c2CCCC3)cc1
    -22%	-9%
CCCCC[C@H](O)C=C[C@H]1[C@H](O)CC(=O)[C@H]1CC=CCCCC(=O)O
    -8%	x
CCc1ccc(NC(=O)CSc2nccn2-c2ccc(F)cc2)cc1
    u	-32%

New compounds follow
Values run as follows: HTT promoter inh	PMP22 txn prim
O=C(CCCn1c(=O)c2ccccc2n(Cc2ccc(F)cc2Cl)c1=O)NCCc1ccc(Cl)cc1
    -3%	u
COc1ccccc1N1CCN(CCCNC(=O)c2cnn(-c3cccc(Cl)c3)c2C2CCN(C(=O)OC(C)(C)C)CC2)CC1
    u	u
COCCCNC(=O)C1CCN(c2nc3ccc(Cl)cc3[nH]2)CC1
    14%	5%
Cc1c(C(=O)N(Cc2cccc(F)c2)C2CCS(=O)(=O)C2)oc2cc(Br)ccc12 (configuration not stated)
    u	u
CC(=O)Nc1nonc1-c1nnc(SCc2ccccc2C)n1C
    -28%	2%
Cc1ccccc1NS(=O)(=O)c1ccc(Br)s1
    -18%	-1%
CCc1ccc(NC(=O)C2CCC(CNS(=O)(=O)c3ccc4c(c3)C(C)(C)C(=O)N4C)CC2)cc1 (configuration not stated)
    -13%	-1%
CCc1nn2c(=O)cc(COC(=O)c3cccc(NC(=O)c4ccccc4C)c3)nc2s1
    -7%	u
O=C(Nc1ccccc1F)c1ccc2c(Cl)c3c(nc2c1)CCC3
    13µM*	u
Cc1ccccc1Cn1nc(C)c(NC(=O)c2cc(-c3ccc(F)cc3)on2)c1C
    -13%	u

Remaining list, next part
Values run as follows: HTT promoter inh	PMP22 txn prim
O=C(C1CCC1)N1CCCc2cc(S(=O)(=O)N3CCN(c4ccccc4)CC3)ccc21
    u	-21%
O=C(COc1ccc(Br)cc1Cl)Nc1ncn[nH]1
    72%[activator]	2%
O=C1Nc2ccccc2Oc2cc(Oc3cccc(Cl)c3)ccc21
    -12%	-28%
CCCOCc1cc(CN2CCN(c3ccccc3OC)CC2)c(O)c2ncccc12
    u	5.8µM*
O=C(COCc1cc(-c2ccc3c(c2)OCO3)on1)N1CCN(c2cccc(Cl)c2)CC1
    -12%	-3%
COc1ccc(NCc2cc3cc4c(cc3n(CC(=O)Nc3ccc(C)c(C)c3)c2=O)OCO4)cc1
    u	u
CCOc1ccc(NC(=O)N(Cc2ccc(CC)cc2)Cc2cn[nH]c2-c2ccc(OC)cc2)cc1
    u	u
CCN(CC)CCCNC(=O)c1c2c(nc3ccccc13)C(=O)N(C1CCCCC1)C2
    -9%	-6%
CCN1CCN(C(c2ccc(SC)cc2)c2c(O)cc(C)n(Cc3ccco3)c2=O)CC1 (configuration not stated)
    -8%	u

Source: PubChem BioAssay (National Center for Advancing Translational Sciences (NCATS))

An excerpt. The share of hits here may be higher or lower than overall.
